Screening results: PubChem BioAssay, National Center for Advancing Translational Sciences (NCATS)
NPR1 antag = antagonists of human natriuretic peptide receptor Npr1; 76,000 compounds, 1.6% hits; Potency, µM (highest dose often 46.3 µM), for the others: top-dose activity change, negative = inhibition, most hits filed as inhibitors; AID 1347048; P16066; HEK293 hNpr1 GloSensor cGMP, ANP-stimulated luminescence; active = well fitted inhibition curve with a large enough effect; inconclusive = small, poorly fitted or top-dose-only effect; inactive = no such curve, though single readings can be large or run the other way;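 further: nearly all actives have a fitted effect of over 60% in size; nearly all hits also lower the signal before the agonist is added; a reference antagonist and vehicle were the controls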
Target sequence (P16066 whole entry, looked up): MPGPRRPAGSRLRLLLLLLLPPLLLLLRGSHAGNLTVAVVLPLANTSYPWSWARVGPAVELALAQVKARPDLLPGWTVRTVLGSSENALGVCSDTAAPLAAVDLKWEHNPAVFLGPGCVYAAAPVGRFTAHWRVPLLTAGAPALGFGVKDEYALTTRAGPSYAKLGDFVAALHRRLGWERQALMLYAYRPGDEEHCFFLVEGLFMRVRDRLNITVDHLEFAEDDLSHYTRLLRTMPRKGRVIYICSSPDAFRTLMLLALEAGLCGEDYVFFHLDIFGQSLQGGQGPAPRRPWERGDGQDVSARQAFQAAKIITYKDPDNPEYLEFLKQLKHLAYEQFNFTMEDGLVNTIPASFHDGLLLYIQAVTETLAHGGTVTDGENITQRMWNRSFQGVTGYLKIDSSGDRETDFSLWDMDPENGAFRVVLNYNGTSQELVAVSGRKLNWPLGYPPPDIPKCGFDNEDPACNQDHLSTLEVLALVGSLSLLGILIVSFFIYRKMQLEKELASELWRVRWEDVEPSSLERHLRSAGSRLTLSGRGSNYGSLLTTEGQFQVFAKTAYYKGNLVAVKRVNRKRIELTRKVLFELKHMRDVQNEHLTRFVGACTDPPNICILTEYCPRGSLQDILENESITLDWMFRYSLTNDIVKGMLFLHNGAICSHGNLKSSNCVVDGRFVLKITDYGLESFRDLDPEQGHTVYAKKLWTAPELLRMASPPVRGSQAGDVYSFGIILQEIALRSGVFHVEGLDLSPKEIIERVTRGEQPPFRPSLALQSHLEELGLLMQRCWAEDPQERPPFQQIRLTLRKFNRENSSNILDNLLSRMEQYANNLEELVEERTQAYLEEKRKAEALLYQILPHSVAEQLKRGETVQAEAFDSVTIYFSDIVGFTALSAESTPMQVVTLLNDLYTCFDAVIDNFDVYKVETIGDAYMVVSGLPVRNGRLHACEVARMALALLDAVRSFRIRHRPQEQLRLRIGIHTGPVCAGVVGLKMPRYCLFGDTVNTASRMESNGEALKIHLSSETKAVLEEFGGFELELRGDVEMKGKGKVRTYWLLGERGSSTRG
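HEK293 cells stably expressing human Npr1 and cGMP GloSensor pGS-40F, loaded 2 h with 2% GloSensor reagent, given compound 30 min at room temperature. Luminescence read before and 20 min after 0.1 nM hNppA.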
* = called active by the depositor; ? = inconclusive; [ ] = dose if it differs, or a comment. On the % scale 0 is the no-effect control and ±100 the full control effect; potency means the concentration at half of the fitted maximal effect.

NPR1 antag | mol
0% | O=c1[nH]c(C2CCCN(Cc3ccccc3C(F)(F)F)C2)nn1-c1ccccc1 (stereo unspecified)
-3% | Cc1ccc(C(=O)N2CCC(c3n[nH]c(=O)n3Cc3ccc(F)cc3)CC2)cc1F
2% | CC(=O)c1cc(CN2CCCn3nc(CNC(=O)C4CCC4)cc3C2)cs1
0% | NC(=O)C1CCN(CC[C@H]2CN(C(=O)Nc3ccc(OC(F)(F)F)cc3)CC[C@H]2CC(=O)O)CC1
4% | CN1CCC(CCNC(=O)C2CCCN(S(=O)(=O)c3ccccc3)CCC(=O)NCC2)CC1 (stereo unspecified)
5% | COCCCNC(=O)C1c2ccccc2C(=O)N(Cc2ccccc2)C12CCCC2 (stereo unspecified)
11µM* | CCNC(=O)N1CCOc2ccc(CCC(=O)Nc3ccc(C)cc3)cc2C1
-8% | COC1C(=O)N(c2cccc(F)c2)C12CCN(C(=O)Nc1ccccc1F)CC2 (stereo unspecified)
11% | CCc1nc(-c2c3n(c(=O)n(CC(=O)Nc4ccc(OC)cc4)c2=O)CCCCC3)no1
7% | COCCNC(=O)c1ccc2c(c1)N(C)C(CC(=O)NCCO)CO2 (stereo unspecified)
4% | O=C1CCN(Cc2ccncc2)CCCC(C(=O)N2CCc3ccccc32)CCN1 (stereo unspecified)
5% | COc1ccc(-c2nc(C)nc3c2CN(C(=O)c2ccc(C(F)(F)F)cc2)CC3)cc1
-16% | CC(C)CNC(=O)c1ccc2c(c1)N(S(=O)(=O)c1ccccc1F)CC2
? | O=C1NC2(CCCN(Cc3ccc(C(F)(F)F)cc3)C2)Oc2ccccc21 (stereo unspecified)
6% | COCCN1C(=O)C(CC(=O)NC2CCS(=O)(=O)C2)=C2CCCCC21 (stereo unspecified)
-8% | O=C(Nc1cccc(C(F)(F)F)c1)c1nnn2c1CN(Cc1ccccc1F)C(=O)CC2
0% | CCOc1ccccc1C(=O)N1C[C@@H](CO)[C@H](c2nc(C3CC3)no2)C1
-18%[70.6 µM] | CC(=O)Nc1cccc(-c2ccnc(-c3nnc(C)n3Cc3ccccc3)c2)c1
3%[70.6 µM] | O=C1N(C2CCOCC2)C[C@H]2CN(S(=O)(=O)c3ccccc3)CCN12
-10% | O=C(Cn1ccn2nc(-c3ccccc3)c(CO)c2c1=O)N1CCCc2ccccc21
-1% | COc1ccc(CNC(=O)c2ccc(CN3C(=O)NC4(CCOCC4)C3=O)cc2)cc1
0% | Cc1ccc(Nc2ncncc2-c2nc(-c3ccccc3)no2)c(C)c1
-11% | Clc1ccc(C2Cn3nnc(-c4noc(-c5ccc6c(c5)OCO6)n4)c3CO2)cc1 (stereo unspecified)
5% | O=C(Cc1ccc(Cl)cc1)NCc1nnc2ccc(-c3ccc(F)cc3)nn12
-1% | CCc1nccn(Cc2nnc(C3CC(N)C3)n2CCOC)c1=O (stereo unspecified)

Remaining list, next part:
NPR1 antag | mol
-2% | COCC1CN(S(=O)(=O)c2ccc(C#N)cc2)CC12CCNCC2 (stereo unspecified)
? | COc1cccc(-c2cc(C3CCN(C(=O)Nc4ccc5c(c4)OCCO5)CC3)[nH]n2)c1
1% | O=C(c1ccc(N2CC[C@@H](O)C2)nc1)N1CCC(Oc2cccnc2)CC1
? | CN1C(=O)CO[C@H](c2ccc(NC(=O)c3ccc(C(F)(F)F)cc3)cc2)[C@H]1CO
-9% | COc1cccc(C(=O)N2CCC3(CC2)OCC(C(=O)N2CCCC2)N3C(=O)c2ccccc2)c1 (stereo unspecified)
0%[70.6 µM] | COc1cccc(NC(=O)c2cnc3c(c2)N([S+](=O)([O-])c2cccnc2)CCC3)c1
6% | O=C(c1nccs1)c1cccnc1N1CCNCC(O)C1 (stereo unspecified)
4% | COc1cccc([S+](=O)([O-])N2CCCC3(C2)NC(=O)c2ccccc2O3)c1 (stereo unspecified)
-10% | COc1ccc(C(=O)N2CCN(C(=O)c3nnn4c3COC(c3ccccc3)C4)CC2)cc1F (stereo unspecified)
1% | COCCC(=O)N[C@@H]1CN(Cc2cccnc2)C[C@H]1CN(C)C
-2%[70.6 µM] | COCCN1CCNc2cc(Nc3cccc(N(C)C)c3)ncc2C1
0% | O=C(Cc1cnc[nH]c1=O)N1CCC2(CC1)[C@H](O)C[C@@H]2OCCO
4% | CC(=O)N1C[C@@H]2CCCN3CCC[C@@H]([C@H]23)[C@H]1CCCC(=O)N(C)Cc1ccc(N2CCOCC2)cc1
-2% | COc1ccc(-c2nc3c(c(=O)[nH]2)CCN(C(=O)c2ccc(OC)nc2)C3)cc1
0% | CNc1cc(C2CC(NC(=O)NCCc3ccccc3F)C2)nc(N)n1 (stereo unspecified)
0% | COc1cccc(CN2CC[C@@H]3C(=O)NCCCCCCN(Cc4ccncc4)[C@@H]3C2)n1
-3% | COC[C@@H]1CN(Cc2ccc(F)cc2F)C[C@H]1C(=O)NC1CC1
9% | O=C(C1CCCC1)N1CCC2(CC1)CC(N(Cc1ccccc1)C1CC1)CCO2 (stereo unspecified)
-4% | O=C(Cc1cccc(F)c1)N1CCC(n2cnnc2-c2ccccc2)C1 (stereo unspecified)
-2% | Cc1cc(C)nc(N2C[C@H]3OC(=O)N(CCc4ccc(F)cc4)[C@H]3C2)n1
4% | COc1cc(CNC2CCCCC2)ccc1OCC(O)CN1CCSCC1 (stereo unspecified)
-10% | CN(C)c1cc(N2CCCC(NC(=O)NCc3ccco3)C2)ncn1 (stereo unspecified)
5%[70.6 µM] | CNC(=O)[C@@H](c1ccc(Cl)cc1)N1CCC[C@H]1C(=O)NCCOC
4% | CC(=O)N1CCC(C(=O)N2CCC3(CC2)NC(=O)N(c2ccc(F)cc2)N3)CC1
2% | O=S(=O)(Cc1ccccc1)N1CCC(n2cnnc2C2CC2)CC1

Further compounds follow:
NPR1 antag | mol
2% | CN1C(=O)CC(C(=O)O)C12CCN(Cc1nc3ccsc3c(=O)[nH]1)CC2 (stereo unspecified)
4% | COCCOCc1nc(C2CCN(C(=O)NCc3ccccc3)CC2)no1
-2% | CCCn1cnnc1CNC(=O)C1(Oc2ccc(Cl)cc2)CCNCC1
-1% | CCCCS(=O)(=O)N1CCCC2(C1)Nc1cccnc1NC2=NCc1ccccc1 (stereo unspecified)
3% | CN(C)C[C@@H]1CN(c2ncccn2)C[C@H]1NC(=O)c1cccc(C#N)c1
-1% | O=C(N[C@@H]1COCC[C@@H]1OCC1CC1)c1cc(-n2cccn2)ccc1Cl
6% | O=C(COc1ccccc1)N1CCC(c2noc(-c3ccncc3)n2)C1 (stereo unspecified)
-13% | O=C(Cn1nc2c(cc1=O)CCCCC2)NCc1ccc(F)cc1
8%[70.6 µM] | C[C@@H](NC(=O)C1CC1)c1c(-c2ccc(Cl)cc2)noc1C(=O)O
11% | CC(C)N1C[C@H](O)C[C@H]1c1nnc2n1CCN(C(=O)CCc1nc3ccccc3s1)C2
2% | CC(C)c1noc(CNC(=O)C2CCC(=O)N(CCN3CCOCC3)C2)n1 (stereo unspecified)
-2% | COCCCn1c(C)cnc1C1CCN(C(=O)NC2CCCCC2)C1 (stereo unspecified)
-2% | CCn1nc(-c2cccc(-c3ccnn3C)c2)nc1N(C)C
-3% | Cc1noc(C2CCCCCN2C(=O)c2ccoc2)n1 (stereo unspecified)
-6% | Nc1cccn2nc(-c3cccnc3)nc12
0%[70.6 µM] | CCNC(=O)Nc1ccc([C@@H](O)[C@H]2COCC(=O)N2CC)cc1
0% | O=C(c1ccsc1)N1CCCCCC1c1nc(-c2cccnc2)no1 (stereo unspecified)
-2% | O=C(Cn1nc2c(cc1=O)CCCC2)N1CCC(c2noc3cc(F)ccc23)CC1
5% | COCc1nc2nccc(-c3ccc(OC)cc3)n2n1
? | O=C(Nc1cccc(-c2nnc3n2CCCC3)c1)c1cc(C2CC2)[nH]n1
3% | CC1=C(C(=O)OC(C)C)C(c2ccccc2Cl)CC(=O)N1Cc1cccc(F)c1 (stereo unspecified)
0% | CC(=O)Nc1ccc(S(=O)(=O)N2C[C@@H]3C[C@H](C2)c2ccc(-c4ccc(OC(F)(F)F)cc4)c(=O)n2C3)cc1
-7% | C[C@H]1[C@@H]2[C@@H](O)C([C@H](C)C(=O)NCCN3CCOCC3)CC[C@@]2(C)CC[C@@H]1NC(=O)c1cncnc1 (stereo partly specified)
-6% | O=C(CCCc1nc(-c2ccncc2)no1)N1CCCC2(CCNCC2)CC1
0%[70.6 µM] | O=C1CC2(CCN(C(=O)c3ccccn3)CC2)Oc2ccccc21

The list continues.
NPR1 antag | mol
6%[70.6 µM] | COCC(=O)N(C)Cc1ccc(F)cc1
5% | O=C(NCCc1ccccn1)C1CC(=O)N(c2n[nH]c3cccc(F)c23)C1 (stereo unspecified)
-2% | COCCN1CCOC[C@H]2CCN(C(=O)C(C)C)C[C@H]21
3% | O=C(CC1CCN(C(=O)c2ccccc2F)C1)NCc1ccccc1 (stereo unspecified)
-15% | O=C(Nc1ccc(Cl)cc1)NC1CCCN(c2nc3ncccc3o2)C1 (stereo unspecified)
0% | CCOCCOC1CCN(C(=O)NCCc2ccccc2)CC1
-2% | O=C(NC1CCN(Cc2ccccc2)CC1)C1CC(=O)N(c2n[nH]c3cccc(F)c23)C1 (stereo unspecified)
0% | O=C(c1ccccc1F)N1CC(N(Cc2cccnc2)C(=O)Nc2ccccc2)C1
3% | COc1ccccc1-c1nc2cnccn2c1NCCC(=O)Nc1cc(F)ccc1F
23% | COc1ccc(CNC(=O)C2CCN(C(=O)c3cc4c(=O)[nH]c(C)cn4n3)CC2)cc1
-2% | CN(C)C[C@@H]1CN(S(C)(=O)=O)C[C@H]1NC(=O)c1cccn1C
-1% | CN1C(=O)C(c2ccccc2)CC12CCN(c1ccnc(N)n1)CC2 (stereo unspecified)
-11% | O=C1CC(c2noc(-c3ccoc3)n2)CN1C1CCCCC1 (stereo unspecified)
0% | CCc1nc2c(c(-c3ccc(Cl)cc3)n1)CCN(C(=O)c1ccccc1)CC2
4% | CCNC(=O)N(C1CC1)C1CCOC2(CCN(C(=O)Nc3ccccc3F)CC2)C1 (stereo unspecified)
1% | COc1ccc(-c2nc(C(C)C)nc3c2CN([S+](=O)([O-])c2ccccc2)CC3)cc1
-19% | CN(C)c1cccc(C(=O)NC2CCCN(c3cc(-c4ccc(Cl)cc4)[nH]n3)C2)c1 (stereo unspecified)
-3% | CCc1ccc(S(=O)(=O)N2CCN(C3CCN(Cc4ccccn4)C3=O)CC2)cc1 (stereo unspecified)
8% | COCC(=O)NC1CCC12CCN(Cc1ccccn1)CC2 (stereo unspecified)
0% | COc1cccc(CCC(=O)N2CCC(c3n[nH]c(=O)n3-c3ccccc3)CC2)c1
3% | CN(Cc1ccccc1)C(=O)[C@H]1CN(Cc2ccccc2)C[C@H]1C(=O)O
2% | Cc1nc(N2CCC(C(=O)NCC3CCCO3)CC2)cc(C(F)(F)F)n1 (stereo unspecified)
3%[70.6 µM] | O=c1cc(-c2cccnc2)oc2c(-c3ccccc3Oc3ccccc3)nccc12
0% | O=C(CCc1nc2ccccc2s1)N1CCC(Cc2nc(C3CC3)n[nH]2)CC1
0% | CCN1c2cc(C(=O)NCc3ccccc3)ccc2C(=O)N2CCCCC21 (stereo unspecified)

Other compounds follow:
NPR1 antag | mol
-19%[70.6 µM] | FC(F)(F)c1cccc(-c2cc(-c3ccncc3)c3cncn3c2)c1
? | COc1ccc(CN2C=C(C(=O)OCc3nc(-c4cccc(C)c4)no3)C(C)=NS2(=O)=O)cc1
5% | O=C1CC(c2ccccc2)N(C(=O)CNC(=O)Nc2ccccc2F)CCCCCN1 (stereo unspecified)
-2%[70.6 µM] | COc1cccc(C(=O)N2CCC(N3CCCCCC3=O)CC2)c1
5% | CCn1nc(C)cc1C(=O)NCc1cccnc1Oc1ccccc1C
-15% | CCN1c2cc(C(=O)Nc3cc(F)ccc3F)ccc2C(=O)N2CCCCCC21 (stereo unspecified)
-21% | Cc1nc(-c2ccc(OC3CCN(C(=O)c4nn(C)c5ccccc45)C3)cc2)no1 (stereo unspecified)
13µM* | COc1ccc(NC(=O)N[C@H]2CO[C@H]3[C@@H]2OC[C@H]3OC(=O)Nc2ccc(Oc3ccccc3)cc2)cc1
3%[70.6 µM] | CCOCCN1C(=O)COC[C@@H]1[C@H](O)c1ccc(NC(=O)C(CC)CC)cc1

Pulled by compound from the list above:
NPR1 antag | mol
5% | O=C1CC(c2ccccc2)N(C(=O)CNC(=O)Nc2ccccc2F)CCCCCN1 (stereo unspecified)
? | COc1ccc(CN2C=C(C(=O)OCc3nc(-c4cccc(C)c4)no3)C(C)=NS2(=O)=O)cc1
-19%[70.6 µM] | FC(F)(F)c1cccc(-c2cc(-c3ccncc3)c3cncn3c2)c1
-2%[70.6 µM] | COc1cccc(C(=O)N2CCC(N3CCCCCC3=O)CC2)c1
13µM* | COc1ccc(NC(=O)N[C@H]2CO[C@H]3[C@@H]2OC[C@H]3OC(=O)Nc2ccc(Oc3ccccc3)cc2)cc1

In the list so far, 10 have a Cl atom.
NPR1 antag | mol
-11% | Clc1ccc(C2Cn3nnc(-c4noc(-c5ccc6c(c5)OCO6)n4)c3CO2)cc1 (stereo unspecified)
5% | O=C(Cc1ccc(Cl)cc1)NCc1nnc2ccc(-c3ccc(F)cc3)nn12
5%[70.6 µM] | CNC(=O)[C@@H](c1ccc(Cl)cc1)N1CCC[C@H]1C(=O)NCCOC
-2% | CCCn1cnnc1CNC(=O)C1(Oc2ccc(Cl)cc2)CCNCC1
-1% | O=C(N[C@@H]1COCC[C@@H]1OCC1CC1)c1cc(-n2cccn2)ccc1Cl
8%[70.6 µM] | C[C@@H](NC(=O)C1CC1)c1c(-c2ccc(Cl)cc2)noc1C(=O)O
3% | CC1=C(C(=O)OC(C)C)C(c2ccccc2Cl)CC(=O)N1Cc1cccc(F)c1 (stereo unspecified)
-15% | O=C(Nc1ccc(Cl)cc1)NC1CCCN(c2nc3ncccc3o2)C1 (stereo unspecified)
0% | CCc1nc2c(c(-c3ccc(Cl)cc3)n1)CCN(C(=O)c1ccccc1)CC2
-19% | CN(C)c1cccc(C(=O)NC2CCCN(c3cc(-c4ccc(Cl)cc4)[nH]n3)C2)c1 (stereo unspecified)

These rows are one share of the data; the hit share may differ from the screen's.
